D2 agonist: Beta-Arrestin HTS for Positive Allosteric Modulators of the Human D2 Dopamine Receptor: Agonists; D(2) dopamine receptor (Homo sapiens), P14416; DiscoveRx PathHunter D2 beta-arrestin, luminescence, 90 min; 100% = 57 uM dopamine signal; activation, % (no concentration beside the values); hit rate 0.084% among 360,000; AID 624465, 2012; in the data active = activation above about 40%; inconclusive = about 15% to 40%; inactive = below about 15%; also: compound concentration not given in the record; the text of the record calls up to 30% inactive
Target sequence (P14416 whole entry, looked up): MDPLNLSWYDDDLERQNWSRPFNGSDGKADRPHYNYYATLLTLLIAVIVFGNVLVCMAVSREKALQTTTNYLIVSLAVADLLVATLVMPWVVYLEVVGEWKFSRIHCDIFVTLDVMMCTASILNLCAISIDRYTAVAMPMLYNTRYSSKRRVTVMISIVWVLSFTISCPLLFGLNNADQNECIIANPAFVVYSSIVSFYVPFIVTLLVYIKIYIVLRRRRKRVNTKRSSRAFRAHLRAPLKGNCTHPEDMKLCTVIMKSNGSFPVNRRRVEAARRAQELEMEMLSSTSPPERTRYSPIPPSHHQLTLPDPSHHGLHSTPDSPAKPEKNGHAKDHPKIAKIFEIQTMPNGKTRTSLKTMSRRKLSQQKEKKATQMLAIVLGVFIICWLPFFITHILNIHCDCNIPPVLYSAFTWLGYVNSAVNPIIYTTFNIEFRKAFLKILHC
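Agonist mode: compounds alone added to overnight-plated D2 PathHunter cells for 90 min at 37 C, with 57 uM final dopamine (EC100) defining full response. Beta-arrestin recruitment detected by chemiluminescent reagent, read after 1 h at ambient temperature.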
Sfp inh: qHTS Assay for Inhibitors of Bacillus subtilis Sfp phosphopantetheinyl transferase (PPTase); 4'-phosphopantetheinyl transferase ffp (Bacillus subtilis), Q9F4F7; Biochemical Sfp PPTase activity, qHTS; hit rate 3.5% among 310,000; Potency, µM, inactives show max response, negative = inhibition, most hits filed as inhibitors; active = well fitted inhibition curve with a large enough effect; inconclusive = small, poorly fitted or top-dose-only effect, or another doubt; inactive = no such curve, though single readings can be large or run the other way;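 also: the enzyme is Sfp with the accession as filed and its product quenches rhodamine fluorescence; potency is read from the fitted curve at half-maximal effect; 0% = enzyme reaction without inhibitor and -100% = no enzyme wells; top concentration of the series not given in the record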
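Fluorescence-quenching assay: 15 nM Sfp-PPTase preincubated 15 min at room temperature with compound, then 5 uM rhodamine-CoA and 12.5 uM BHQ-2-labelled YbbR peptide added. Fluorescence (ex 525/em 598 nm) read at start and after 30 min; difference gives rate.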
gsp antagonist: qHTS for Antagonists of gsp, the Etiologic Mutation Responsible for Fibrous Dysplasia/McCune-Albright Syndrome: qHTS | Potency, µM (series often up to 76.9 µM), for the others: top-dose activity change, negative = inhibition, actives largely listed as inhibitors | AID 624288, 2012 | gsp-mutant cells, cAMP HTRF, 30 min; control for the full effect not named in the record | hit rate 0.4% among 340,000; active = falling curve of any shape with a large fitted effect; inconclusive = falling curve, mostly with a smaller effect; inactive = flat or rising curve; cell line not stated here;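 also: intracellular cAMP measured with PDE inhibitor Ro 20-1724 present during compound exposure; potency is read from the fitted curve at half-maximal effect; % is scaled to controls: 0 for no effect and ±100 for the full control effect; nearly all actives have a fitted effect of over 65% in size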
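G418-selected cells were plated in DMEM/10% FBS for 16-24 h at 37C, then treated with compounds plus the PDE inhibitor […] (300 uM solution added) for 30 min at 37C. Intracellular cAMP was measured by HTRF after 30 min lysis at room temperature.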
Menin-MLL FL inh: qHTS Assay for Inhibitors Targeting the Menin-MLL Interaction in MLL Related Leukemias: Competition With Fluorescein Labeled MLL-derived Peptide; Fluorescence polarization, fluorescein-MLL peptide displacement from menin; FP activity change, % at 61.4 µM; 290,000 tested, under 10 active; AID 1766, 2009; inconclusive = falling polarisation curve, or a change in total fluorescence; inactive = total fluorescence flat and polarisation flat or rising; no compound was filed as active; the % refers to the polarisation; negative = inhibition;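 also: % of control where 0% means no effect; inhibitors lower the polarisation; unlabelled MLL peptide was the positive control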
gsp ag: qHTS for Agonist of gsp, the Etiologic Mutation Responsible for Fibrous Dysplasia/McCune-Albright Syndrome: qHTS; gsp mutant cells, cAMP HTRF, 30 min; control for the full effect not named in the record; Potency, µM (doses to about 76.9 µM), for the others: top-dose activation (cAMP increase), usual class: activators; hit rate 0.13% among 340,000; active = well fitted activation curve with a large enough effect; inconclusive = small, poorly fitted or top-dose-only effect, or another doubt; inactive = no such curve, though single readings can be large or run the other way; cell line not stated here;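 also: phosphodiesterase inhibitor Ro 20-1724 added with compounds to block cAMP breakdown; potency is read from the fitted curve at half-maximal effect; nearly all actives have a fitted effect of over 60% in size; about a fifth of the inactives were tested at one dose only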
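Cells stably selected in G418 were plated at 2000/well, grown 16-24 hr, then given compounds in DMSO with the PDE inhibitor […] (300 uM solution added) for 30 min at 37C; cAMP was read by HTRF.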
PINK1 expr mod: A Quantitative High throughput Screen to Identify Chemical Modulators of PINK1 Expression. PINK1 immunofluorescence, high-content cytometry, 24 h. Potency, µM (titrated, usually from 76.6 µM), for the others: top-dose activation (PINK1 increase), hits mostly activators. hit rate 0.2% among 410,000. AID 624263, 2012; active = well fitted activation curve with a large enough effect; inconclusive = small, poorly fitted or top-dose-only effect; inactive = flat fitted curve, though single readings scatter; cell line not stated here;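 also: potency is read from the fitted curve at half-maximal effect; % of control where 0% means no effect; nearly all actives have a fitted effect of over 65% in size; a mitochondrial uncoupler was the plate control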
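Cells are seeded, rested 12 hours, then given compound at five concentrations or DMSO for 24 hours. After fixation, blocking and antibody staining, PINK1 amount and mitochondrial localization are scored; CCCP serves as control.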
ClpP mod: qHTS Assay for Activators of ClpP | Potency, µM (doses to about 57.5 µM), without a hit: at the top dose activity change, negative = active | ATP-dependent Clp protease proteolytic subunit (Bacillus subtilis (strain 168)), P80244 | purified B. subtilis ClpP, FRET peptide cleavage, 20 min | hit rate 1.9% among 340,000; active = well fitted falling curve with a large enough effect; inconclusive = small, poorly fitted or top-dose-only effect; inactive = no such curve, though single readings can be large or run the other way; also: potency is read from the fitted curve at half-maximal effect; the source files actives as falling curves though it sought activators and does not explain the sign; nearly all actives have a fitted effect of over 65% in size; many hits overshoot -100%
Target sequence (P80244 whole entry, looked up): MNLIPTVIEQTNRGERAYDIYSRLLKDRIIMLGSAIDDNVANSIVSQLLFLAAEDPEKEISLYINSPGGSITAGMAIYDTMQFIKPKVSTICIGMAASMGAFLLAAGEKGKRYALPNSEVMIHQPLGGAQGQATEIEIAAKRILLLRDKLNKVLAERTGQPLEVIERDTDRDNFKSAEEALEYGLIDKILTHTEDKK
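ClpP 10 microg/mL final, pH 8 Tris/KCl buffer with BSA, glycerol, Tween-20; compound pinned in; FRET-FV substrate; RT 20 min; Ex320/Em430; ΔFRET vs ADEP 5.8 microM, DMSO, no enzyme.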
* = called active by the depositor; ? = inconclusive; . = not tested or not shown; & = joins results of further samples; ! = not active in a repeat; [ ] = another dose, or the depositor's remark.

Every second line gives: D2 agonist, Sfp inh, gsp antagonist, Menin-MLL FL inh, gsp ag, PINK1 expr mod, ClpP mod
> Cc1ccc(-c2ccc(=O)n(CCC(=O)NCCN3CCCCC3C)n2)cc1 (centres undefined)
  -3.2, 21%, 2%, 3.0, 15%, -0.7%, -25%
> CC(=O)c1ccc(-c2ccc(/C=C(/Sc3n[nH]c(C)n3)C(=O)O)o2)cc1
  0.8, 10µM*, ?, ?, ?, 0.5%, -3.7%
> CCN(CC)S(=O)(=O)c1ccc(O)c(C(=O)OCC(=O)N(C)Cc2ccccc2)c1
  -3.0, 1%, -10%, -0.4, 8%, -1.7%, ?
> C[C@H]1CCC[C@@]2(O[C@@H](CCO)C[C@@H](O)[C@@H]2O)O1
  -1.8, 12%, 14%, -0.3, ., 1.3%, -1.7%
> COc1ccccc1NC(=O)CN(Cc1ccco1)C(=O)c1ccc(N2CCCC2=O)cc1
  -1.5, ., 1%, ., -4%[15.4 µM], -1.1%, -0.4%
> CCN(C[C@H]1N[C@@](C)(C(=O)OC)[C@H]2C(=O)N(Cc3ccccc3)C(=O)[C@@H]12)S(=O)(=O)c1ccc(F)cc1
  -1.7, ., 5%, ., ., -0.1%, -1.6%
> Cc1nc(NCCNC(=O)c2ccco2)c2c(C)c(C)sc2n1
  0.1, -6%, 6%, 7.8, -43%[inhibitor], -2.0%, -6.0%
> CCC(CC)C(=O)OCC(=O)Nc1cccc(S(=O)(=O)N(C)c2ccccc2)c1
  0.7, 12%, -7%, 1.0, -19%, -3.1%, .
> COc1ccc(NC(=O)CNc2ccc(OC)c(S(=O)(=O)N3CCOCC3)c2)cc1
  -2.0, ., ., ., -32%[inhibitor], -0.2%, -1.1%
> Cc1cccc(NC(=S)NC2CC3CCCC(C2)N3Cc2cccs2)c1 (centres undefined)
  1.1, 3%, 1%, -1.6, 4%, -4.5%[38.3 µM], -1.1%
> COc1ccccc1-n1c(N)cc(=O)nc1SCC(=O)Nc1cc(C)on1
  -3.4, 11%, 0%, 1.9, 2%[15.4 µM], 0.7%, .
> O=C(/C=C\c1ccccc1[N+](=O)[O-])Nc1ccccc1
  -3.4, 18%, -11%, -0.4, 11%, 4.8%, 0.3%
> CC1C(=O)N(Cc2cn(CCC3OCCO3)nn2)CCS(=O)(=O)N1Cc1ccc(-c2cccc(CO)c2)cc1 (centres undefined)
  -0.6, ., ., ., 21%, 1.8%, 1.5%
> Nc1ccn([C@@H]2O[C@H](CNCc3ccc(-c4cc(C(F)(F)F)ccc4Cl)o3)[C@@H](O)[C@H]2O)c(=O)n1
  -0.2, ., ., ., ?, 0.7%, -1.3%
> COc1ccc(Cl)cc1C(=O)Nc1cccnc1Cl
  1.2, 7%, 0%, 0.0, -16%, -2.9%, -5.5%
> CC(=O)c1ccc(OCC(O)CN2CCC(C)CC2)cc1 (centres undefined)
  2.3, 22%, -5%, -3.3, 0%, -0.2%, -1.4%
> O=C(Nc1ccc(N2CCOCC2)cc1)C1CC(=O)N(c2ccc(Cl)cc2)C1 (centres undefined)
  -4.7, 22%, 6%, 0.8, -1%[15.4 µM], 12%, 1.4%
> CCN(CC(=O)NCCc1ccc(S(N)(=O)=O)cc1)Cc1ccccc1
  3.0, 13%, 6%, ., -6%, -0.7%, -3.7%
> CCc1ccc(N2CC(C(=O)OCC(=O)NC3CCS(=O)(=O)C3)CC2=O)cc1 (centres undefined)
  -0.1, 14%, 9%, 1.3, 8%, -0.1%, -0.9%
> COc1ccc(NC(=O)N2CCCC(C(=O)NCc3ccccc3F)C2)cc1 (centres undefined)
  -2.4, 4%, 6%, 3.8, -8%[15.4 µM], -3.1%, .
> CC1CCCC(NC(=O)COC(=O)c2cccs2)C1C (centres undefined)
  4.9, ., 0%, ., 3%, 3.9%, 2.0%
> CCOC(=O)c1cccc(NC(=O)CSc2nnc(C3CCCCC3)n2C)c1
  -5.4, 14%, -7%, 6.5, 5%, 1.1%, 0.0%
> Cc1ccc(NC2CCCN(C(=O)CCN3CCOCC3)C2)cc1C (centres undefined)
  0.2, 12%, 7%, ., 19%, -1.2%, 0.3%
> O=C(Nc1cccc(F)c1)Nc1ccnn1C1CCN(C(=O)CCN2CCCO2)CC1
  -2.6, 16%, 15%, ., -5%[15.4 µM], 1.0%, -6.0%
> CCOC(=O)C1=C(C)NC(=O)NC1c1ccc(OC(=O)c2ccco2)cc1 (centres undefined)
  -0.5, 9%, -3%, 4.7, -3%, 1.2%, 0.2%
> CCNc1nc2c(c(=O)[nH]c(=O)n2C)n1Cc1ccc(F)cc1
  -5.3, -3%, 8%, 2.8, -4%, 1.6%, 0.5%
> COc1ccc(NS(=O)(=O)c2ccc(NS(=O)(=O)c3cccs3)cc2)c(OC)c1
  2.9, -1%, -1%, -6.5, -19%, -2.9%, .
> Fc1ccc(COc2ccc(C(=S)N3CCCC3)cc2)cc1
  1.7, -10%, -3%, 0.6, 18%[15.4 µM], 0.7%, -2.8%
> Clc1ccccc1Cn1nnc2c(NCCN3CCOCC3)ncnc21
  3.7, -1%, -10%, 2.1, -4%, 0.8%[38.3 µM], 0.9%
> O=C(Cc1ccc(Cl)cc1)Nc1ccccc1N1CCOCC1
  -1.6, 9%, 3%, 5.8, 16%, 4.2%, -1.5%

Given with tabs: part of the list above
mol	D2 agonist	Sfp inh	gsp antagonist	Menin-MLL FL inh	gsp ag	PINK1 expr mod	ClpP mod
CCOC(=O)C1=C(C)NC(=O)NC1c1ccc(OC(=O)c2ccco2)cc1 (centres undefined)	-0.5	9%	-3%	4.7	-3%	1.2%	0.2%
CCNc1nc2c(c(=O)[nH]c(=O)n2C)n1Cc1ccc(F)cc1	-5.3	-3%	8%	2.8	-4%	1.6%	0.5%

(next part)
Every second line gives: D2 agonist, Sfp inh, gsp antagonist, Menin-MLL FL inh, gsp ag, PINK1 expr mod, ClpP mod
> Cc1ccc(S(=O)(=O)/N=C(/NC(=S)Nc2ccccc2)c2ccccc2)cc1
  -0.5, -15%, -4%, 1.1, -18%, -0.5%, 0.3%
> CCC1(C)Cc2c(sc3[nH]c(=S)[nH]c(=S)c23)CO1 (centres undefined)
  -9.5, 11%, -3%, 19, ?, 1.4%, -9.1%
> O=C(CC1S/C(=N/N=C/c2ccco2)NC1=O)Nc1ccccc1 (centres undefined)
  2.8, -14%, 4%, -2.6, -14%[15.4 µM], 2.0%, .
> Cc1ccc(-c2nnn(CC(=O)N3CCCc4ccccc43)n2)cc1
  -5.8, 16%, 4%, 6.2, 18%, -4.5%, 0.0%
> Cc1ccc(S(=O)(=O)c2cn(C)c3cc(N4CCN(C)CC4)c(F)cc3c2=O)cc1
  0.0, 16%, -1%, -0.1, -18%, 4.8%&1.1%, 25µM*!
> Nc1ccccc1N=Cc1ccc(-c2cccc(Cl)c2)o1
  3.8, 32µM*, ?, 26, -34%[inhibitor], ?, .
> O=C(NC1CC1)c1cccc(NC(=O)C2CC2)c1
  -4.3, ., -2%, ., ., 0.7%, 2.3%
> Nc1nc2n(n1)C(c1ccco1)CC(c1ccc(Cl)c(Cl)c1)N2 (centres undefined)
  -4.2, -7%, -1%, 0.5, -8%, -3.3%, -9.5%
> Cn1nc(-c2ccc(Cl)cc2)c2cc(C(=O)NCCCN3CCCC3)sc21
  14, -7%, 8%, 2.2, -56%[inhibitor], -0.7%, 4.5%
> COc1cccc(NC(=O)CN(C)C(=O)c2c(C)nn(Cc3ccc(C)cc3)c2Cl)c1
  -1.7, ., -2%, ., 2%[15.4 µM], 0.6%, .
> CCC(C)(C)NC(=O)c1ccc(S(=O)(=O)N2CCCCCC2)cc1
  -3.7, 10%, 13%, -2.4, -8%[15.4 µM], -1.6%, .
> Cc1cccc(OCCCC(=O)Nc2ccc(S(=O)(=O)Nc3nccs3)cc2)c1C
  -1.6, 11%, -12%, 9.2, 0%, -2.5%, 1.0%
> CC(=O)Nc1ccc(NC(=O)CSCc2ccccc2Cl)cc1
  -5.2, ., 3%, ., 0%[15.4 µM], -0.4%, .
> COc1ccccc1NS(=O)(=O)c1ccc2oc(SC(C)C(=O)N3CCNC3=O)nc2c1 (centres undefined)
  1.3, ., ?, ., 18%, -1.6%, -3.0%
> Cc1[nH]c2ccccc2c1SCc1n[nH]c(=S)n1C
  -7.3, -11%, -3%, 3.4, -1%, 6.2%, -2.3%
> C[n+]1c(/C=C/c2ccc3c(c2)OCO3)ccc2ccccc21
  1.5, -22%, 3%, 0.9, 8%, 8.3%, .
> O=C(NCC(=O)N1CCCC1)NN=Cc1ccccc1O
  -2.6, ., ., ., ., 1.0%, ?
> Cc1ccc2c(c1)N(C(=O)CCC(=O)N1CCN(c3cccc(C)c3C)CC1)CCO2
  -7.0, -2%, ?, -1.3, -48%[inhibitor], 0.3%, -0.8%
> CC(Cl)C(=O)Nc1c2c(nn1-c1ccccc1)CSC2 (centres undefined)
  2.1, 13%, -6%, 0.8, 2%, -0.4%, -0.1%
> O=C(CN1CCOCC1)N1CCCc2ccccc21
  1.1, -22%, 4%, -4.7, 2%[15.4 µM], -0.4%, 0.8%
> COc1ccccc1NC(=O)NCC1(N(C)C)CCCCC1
  -4.3, 15%, 8%, -0.1, -1%[15.4 µM], 3.2%, -3.8%
> COc1ccc(NC(=O)COC(=O)c2cc3c(s2)CCC3)cc1
  -1.6, ., 16%, ., 21%, 2.9%, -9.4%

Screening data from PubChem BioAssay.
